# ClpP mod = qHTS Assay for Activators of ClpP; ATP-dependent Clp protease proteolytic subunit (Bacillus subtilis (strain 168)), P80244; purified B. subtilis ClpP, FRET peptide cleavage, 20 min; Potency, µM (titrated, usually from 57.5 µM), for the others: at the top dose activity change, negative = active; hit rate 1.9% among 340,000; AID 651965, 2013; active = well fitted falling curve with a large enough effect; inconclusive = small, poorly fitted or top-dose-only effect; inactive = no such curve, though single readings can be large or run the other way; further: potency means the concentration at half of the fitted maximal effect; the source files actives as falling curves though it sought activators and does not explain the sign; nearly all actives have a fitted effect of over 65% in size; many hits overshoot -100%
# Target sequence (P80244 whole entry, looked up): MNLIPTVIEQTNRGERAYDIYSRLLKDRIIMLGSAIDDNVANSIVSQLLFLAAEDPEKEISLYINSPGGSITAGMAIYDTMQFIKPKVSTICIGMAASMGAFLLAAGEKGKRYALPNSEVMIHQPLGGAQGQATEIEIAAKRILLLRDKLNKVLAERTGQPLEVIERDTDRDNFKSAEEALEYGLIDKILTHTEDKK
#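 Buffer: 100 mM Tris/HCl pH8, 100 mM KCl, 0.05% low protease BSA, 2.5% glycerol, 0.01% Tween-20. ClpP 10 microg/mL final; 20 min RT; delta FRET normalized to ADEP and DMSO controls.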
# TRPML1 blocker = blocks the human TRPML1 channel; TRPML1-inducible cells, Ca2+ dye fluorescence, FDSS; active compounds read low; inhibition of EC80 agonist-evoked calcium signal; activity change, negative = inhibition, % (test concentration not listed); hit rate 0.02% among 390,000; in the data active means activity change below about -50%; inconclusive means about -30% to -50%; inactive means above about -30%;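 further: stimulus is agonist 54-4 at its EC80 concentration; on the % scale 0 is the no-effect control and ±100 the full control effect; compound concentration not given in the record; the text of the record puts the active cut at -80%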
#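 Calcium fluorescence in TRPML1-DL cells induced overnight with Tet: a 110 s read after compound pin addition, then a 110 s antagonist read after challenge with 54-4 at 4 uM final (EC80).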
# Sfp inh = Sfp phosphopantetheinyl transferase inhibition; Biochemical Sfp PPTase activity, qHTS; Potency, µM, inactives show max response, negative = inhibition, actives largely listed as inhibitors; hit rate 3.5% among 310,000; active means well fitted inhibition curve with a large enough effect; inconclusive means small, poorly fitted or top-dose-only effect, or another doubt; inactive means no such curve, though single readings can be large or run the other way;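 further: the enzyme is Sfp with the accession as filed and its product quenches rhodamine fluorescence; potency means the concentration at half of the fitted maximal effect; 0% = enzyme reaction without inhibitor and -100% = no enzyme wells; top concentration of the series not given in the record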
#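 With Hepes-Na pH 7.6 buffer containing 10 mM MgCl2, Sfp (15 nM) modified BHQ-2-YbbR (12.5 uM) using rhodamine-CoA (5 uM). Two reads 30 minutes apart at 525/598 nm yielded each well's rate.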
# PINK1 modulator = modulators of PINK1 expression; PINK1 immunofluorescence, high-content cytometry, 24 h; Potency, µM (series often up to 76.6 µM), without a hit: at the highest dose activation (PINK1 increase), most hits filed as activators; hit rate 0.2% among 410,000; active = well fitted activation curve with a large enough effect; inconclusive = small, poorly fitted or top-dose-only effect; inactive = flat fitted curve, though single readings scatter; cell line not stated here;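 further: potency means the concentration at half of the fitted maximal effect; % of control where 0% means no effect; nearly all actives have a fitted effect of over 65% in size; a mitochondrial uncoupler was the plate control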
#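 A stable cell line was treated with compounds at 5 concentrations for 24 hours, with CCCP as control. PINK1 levels and mitochondrial localization were measured by immunofluorescence with mitochondrial, cell and nuclear markers after fixation, read by laser-scanning cytometry.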
# TRPML1 agonist = agonists of human TRPML1 channel. Q9GZU1. TRPML1-expressing cells, Ca2+ dye fluorescence, FDSS; host cell line not named in the record; reference of the full effect not given here. activation, % (concentration not given with the values). hit rate 0.12% among 410,000. AID 624414; in the data active = activation above about 50%; inconclusive = about 30% to 50%; inactive = below about 30%; further: 0% is about no effect; the text of the record puts the active cut at 80%
#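 Calcium fluorescence on an FDSS kinetic reader gave the read-out. Tet-induced TRPML1-DL cells were plated overnight, dye-loaded (Ca8 with quencher, 45-90 min, room temperature, dark), then read 110 s after compound addition, and again 110 s after 4uM final 54-4 (EC80).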
# TRPV1 potentiator = potentiators of human vanilloid receptor 1 (TRPV1) | potentiation, % at 8.33 µM | Q8NER1 | TRPV1-expressing cells, Fluo-8 calcium influx, capsaicin EC20 potentiation; host cell line not named in the record; control for the full effect not named in the record | hit rate 0.02% among 320,000; active means potentiation above 80%; inconclusive means 30% to 80%; inactive means below 30%; further: 0% is about no effect
# Target sequence (Q8NER1 whole entry, looked up): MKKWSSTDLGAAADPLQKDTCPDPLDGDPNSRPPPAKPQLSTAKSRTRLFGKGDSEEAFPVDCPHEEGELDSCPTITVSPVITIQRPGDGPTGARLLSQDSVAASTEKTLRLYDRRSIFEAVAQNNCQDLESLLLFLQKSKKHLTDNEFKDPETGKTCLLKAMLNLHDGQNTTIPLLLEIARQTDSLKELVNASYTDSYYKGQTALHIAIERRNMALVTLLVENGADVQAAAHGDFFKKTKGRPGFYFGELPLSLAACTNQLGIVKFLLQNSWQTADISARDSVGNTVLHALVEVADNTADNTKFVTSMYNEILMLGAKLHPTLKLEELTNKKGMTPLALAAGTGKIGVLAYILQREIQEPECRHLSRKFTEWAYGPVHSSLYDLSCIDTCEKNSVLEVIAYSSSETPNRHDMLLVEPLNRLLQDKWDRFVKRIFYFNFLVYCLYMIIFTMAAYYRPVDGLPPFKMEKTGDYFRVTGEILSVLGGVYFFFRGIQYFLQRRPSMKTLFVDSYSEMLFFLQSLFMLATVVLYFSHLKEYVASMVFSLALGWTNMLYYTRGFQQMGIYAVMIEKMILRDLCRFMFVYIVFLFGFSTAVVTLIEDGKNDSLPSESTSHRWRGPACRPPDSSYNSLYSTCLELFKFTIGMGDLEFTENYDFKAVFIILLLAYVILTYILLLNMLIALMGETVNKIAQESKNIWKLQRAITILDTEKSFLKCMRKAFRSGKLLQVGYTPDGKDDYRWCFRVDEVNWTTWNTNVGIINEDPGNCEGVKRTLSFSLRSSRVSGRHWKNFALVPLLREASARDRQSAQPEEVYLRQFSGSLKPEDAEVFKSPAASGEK
#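 TRPV1-expressing cells were cultured overnight at 35.5C and loaded with Fluo-8 calcium dye for 40 to 90 min at room temperature. After a 10 s baseline, compound was added and calcium influx was read kinetically for 3 min (ex 480/em 520 nm).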
# Menin MLL FP FL = inhibitors of human menin-MLL interaction, wild-type MLL peptide | Fluorescence polarization, fluorescein-MLL peptide displacement from menin | FP activity change, % at 61.4 µM | 290,000 tested, under 10 active | AID 1766; inconclusive = falling polarisation curve, or a change in total fluorescence; inactive = total fluorescence flat and polarisation flat or rising; no compound was filed as active; the % refers to the polarisation; negative = inhibition;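 further: % of control where 0% means no effect; inhibitors lower the polarisation; unlabelled MLL peptide was the positive control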
# * = called active by the depositor; ? = inconclusive; . = no result given; [ ] = remark or other dose.
# A first look, 2 compounds:
SMILES,ClpP mod,TRPML1 blocker,Sfp inh,PINK1 modulator,TRPML1 agonist,TRPV1 potentiator,Menin MLL FP FL
CCCCOc1ccc(C(=O)Nc2cc(-c3cn4cccnc4n3)ccc2OC)cc1,-27%,14,.,0.9%,0.3,.,.
Cc1ccc(NC(=O)CN(C)C(=O)c2cc(-c3ccccc3)nn2-c2ccccc2)cc1,1.0%,14,.,-4.9%,2.4,8,.

# All compounds of this part, from the start:
SMILES,ClpP mod,TRPML1 blocker,Sfp inh,PINK1 modulator,TRPML1 agonist,TRPV1 potentiator,Menin MLL FP FL
CCCCOc1ccc(C(=O)Nc2cc(-c3cn4cccnc4n3)ccc2OC)cc1,-27%,14,.,0.9%,0.3,.,.
Cc1ccc(NC(=O)CN(C)C(=O)c2cc(-c3ccccc3)nn2-c2ccccc2)cc1,1.0%,14,.,-4.9%,2.4,8,.
CCOc1ccc2nc(N3CCCC(C(=O)Nc4ccc(OC)c(Cl)c4)C3)sc2c1 (centres undefined),1.9%,3,.,-1.0%,-0.7,.,.
O=C(NC(=S)Nc1ccc(Cl)cn1)C12CC3CC(CC(C3)C1)C2,1.2%,64,3%,6.7%,0.7,12,-5.6
CC1C(=O)N2CCCc3cc(NC(=O)c4ccccc4F)cc1c32 (centres undefined),?,1,.,0.9%,0.0,-3,.
Cc1ccc2c(c1)c(C)cc[n+]2Cc1ccccc1,-26%,-3,18%,6.3%,3.4,5,0.4
O=Cc1c(NCc2ccccc2Cl)c2ccccc2[nH]c1=O,-6.9%,-11,30%,-1.1%,-0.2,-16,-8.9
CCOC(=O)c1nn(-c2ccccc2)c(C(=O)OCC)c1N,2µM*,-17,16%,-1.7%[38.3 µM],2.5,-10,-2.0
CCN(CCCNC(=O)CSc1cc(=O)n(C)c2cc(Cl)ccc12)c1ccccc1,-5.5%,-1,.,1.3%,-1.4,.,.
O=C(Nc1ccc(OC(F)F)cc1)c1ncc(Cl)c(Cl)c1Cl,.,24,15%,-1.5%,1.5,-12,-5.1
Cc1ccc2nc(-c3ccccc3)c(CN3CCOCC3)n2c1,-20%,7,?,0.5%,0.0,-8,-1.6
COc1cc(C(=O)NC2CC(=O)N(c3cccc(F)c3)C2)cc(OC)c1OC (centres undefined),0.6%,21,.,-0.5%,-0.3,.,.
CS(=O)(=O)c1ccc(-c2csc(C(O)c3cccc(Cl)c3)n2)cc1 (centres undefined),-13%,.,.,2.7%,-0.5,.,.
Cc1ccc(C)c(SCC(=O)OCC(=O)Nc2ncc(C(F)(F)F)cc2Cl)c1,.,-9,-9%,1.9%,2.4,9,4.4
CCOc1ccc(Br)cc1S(=O)(=O)Nc1ccc(S(=O)(=O)Nc2cc(C)on2)cc1,.,-8,.,0.7%,-1.2,.,.
Cc1[nH][nH]c(=O)c1C(c1ccc(O)c(Br)c1)c1c(C)[nH][nH]c1=O,-2.6%,-12,-3%,-1.8%,0.8,-9,?
O=C(c1nc2nc(-c3ccccc3)cc(C(F)(F)F)n2n1)N1CCCCC1,28µM*,-12,-8%,4.9%[38.3 µM],0.9,5,4.7
O=C(Cn1ncc2c([nH]c3ccccc32)c1=O)NCc1cccc(Cl)c1,-18%,-4,.,2.7%,2.2,.,.
O=C(O)c1cc(S(=O)(=O)Nc2ccc3c(c2)OCCO3)c(Cl)cc1Cl,2.5%,18,14%,8.6%,1.3,-11,0.0
CC1C(=O)OC(c2ccc(Cl)cc2)C(C)(C)C1=O (centres undefined),-2.8%,-25,17%,0.1%,-0.8,-5,5.1
COCc1cc(=O)[nH]c(SCC(=O)N2CCOCC2)n1,2.0%,33,9%,2.3%,2.0,-5,.
O=C(CN1CCN(S(=O)(=O)c2ccc3ccccc3c2)CC1)Nc1ccc2c(c1)CCC2,-9.4%,-9,-9%,-1.0%,1.1,0,1.8
O=C(C1CCOCC1)N1CCC(CO)(CCc2ccccc2)CC1,.,-5,21%,1.4%,-0.6,-1,-2.8
COc1ccc(/C=N/NC(=O)c2ccccc2O)cc1Cn1nnc2ccccc21,-13%,24,-4%,6.6%,1.4,-10,-0.9
CCN(C(=O)CSc1nc(C)nc2sc(C)c(C)c12)c1ccc(F)cc1,2.5%,-3,.,1.4%,-0.4,-6,.
COc1ccc(S(=O)(=O)NC(=O)C2(C)CCN2C(=O)c2c(C)noc2C)cc1 (centres undefined),2.5%,.,.,1.2%,-0.4,.,.
CC(C)[C@H](NC(=O)N1c2ccccc2NC(=O)[C@@H]1C(C)C)C(=O)N[C@@H](Cc1ccccc1)C(=O)O,1.6%,.,9%,0.5%,.,-9,0.0
COc1cccc(CNC(=O)Cn2ncn3nc(-c4cccs4)cc3c2=O)c1,?,-25,.,1.7%,0.4,.,.
CCOC(=O)c1sc(=S)[nH]c1C,-2.3%,-18,.,0.8%,-0.3,.,.
Cc1cc(N2CCCCC2)nc2ccc(NC(=O)/C=C/c3ccccc3Cl)cc12,-2.8%,-11,.,2.2%,-0.3,.,.
COC(=O)N/N=C/c1cccc(OCCSc2ccc(Cl)cc2)c1,1.0%,21,-8%,?,2.5,?,.
O=c1[nH]c2ccc(S(=O)(=O)N3CCN(Cc4ccccc4)CC3)cc2[nH]c1=O,28µM*,-5,14%,2.7%[38.3 µM],0.0,-5,-2.2
O=c1[nH]c2cccnc2c2ccsc12,.,-4,5%,0.4%,0.2,-10,4.1
COC(=O)c1[nH]c2ccc(C)cc2c1NC(=O)CCN1CCN(C2CCCCC2)CC1,.,.,14%,.,.,-1,4.8
O=C(CNS(=O)(=O)c1ccccc1)NCc1ccco1,.,4,-18%,0.6%,-0.3,24,-2.2
CCOC(=O)CC(=O)N/N=C/c1c(N)n(C)c(=O)n(C)c1=O,.,2,8%,-0.1%,-0.5,1,5.1
COc1ccc(C(=O)COC(=O)c2ccc(N(C)C)cc2)cc1,.,0,20%,0.0%,-0.3,8,-0.4
O=C(Nc1cccc(F)c1)N1CCC2(CC1)CCN(C(=O)c1cccc(F)c1)CC2,.,.,9%,0.9%,.,.,-0.8
O=C(CSC(=S)N1CCCC1)c1cc(Br)cc(Br)c1O,.,-9,-102%,1.0%,1.4,10,8.8
COc1ccc(N2CCN(Cc3ccc(Br)s3)CC2)cc1,-2.6%,1,40µM*,0.5%[38.3 µM],4.5,11,-3.0

# Compounds shown so far containing a CF3 group:
SMILES,ClpP mod,TRPML1 blocker,Sfp inh,PINK1 modulator,TRPML1 agonist,TRPV1 potentiator,Menin MLL FP FL
Cc1ccc(C)c(SCC(=O)OCC(=O)Nc2ncc(C(F)(F)F)cc2Cl)c1,.,-9,-9%,1.9%,2.4,9,4.4
O=C(c1nc2nc(-c3ccccc3)cc(C(F)(F)F)n2n1)N1CCCCC1,28µM*,-12,-8%,4.9%[38.3 µM],0.9,5,4.7

# Three compounds out of the list above, ordered by their value in Sfp inh, ascending.
structure	Sfp inh
O=C(CSC(=S)N1CCCC1)c1cc(Br)cc(Br)c1O	-102%
CCOC(=O)CC(=O)N/N=C/c1c(N)n(C)c(=O)n(C)c1=O	8%
O=C(Nc1cccc(F)c1)N1CCC2(CC1)CCN(C(=O)c1cccc(F)c1)CC2	9%

# Following part.
SMILES,ClpP mod,TRPML1 blocker,Sfp inh,PINK1 modulator,TRPML1 agonist,TRPV1 potentiator,Menin MLL FP FL
Cc1cc(C)c(C)c(S(=O)(=O)N2C(=S)NC(=O)C2C(C)C)c1C (centres undefined),-4.4%,-14,-9%,-3.0%,-0.4,6,0.5
Cc1ccc(S(=O)(=O)CCC(=O)OCC(=O)Nc2ncc(Cl)cc2Cl)cc1,-18%,10,-10%,0.2%,-0.1,6,4.7
CCCC(C(=O)NC(C)(C)C)N(Cc1ccc(F)cc1)C(=O)c1snc(C(N)=O)c1N (centres undefined),?,1,20%,-1.1%,-0.1,-12,0.6
O=C(NC(=S)NC1CCCC1)c1ccccc1,0.7%,8,21%,2.7%,2.3,-12,.
COc1ccccc1NC(=O)CSc1nc2c(oc3ccccc32)c(=O)n1Cc1ccco1,-7.4%,56,.,0.1%,-0.4,.,.
CC(=O)c1c(C)[nH]c(C(=O)OCc2ccccc2)c1C,.,-8,16%,0.1%,2.2,-10,4.3
Cc1ccc(SCC(=O)NC(=O)NCc2ccccc2)c(C)c1,35µM*,-9,4%,0.2%,1.5,13,0.7
CNc1c([N+](=O)[O-])cnn1-c1ccc(Cl)cc1,1.3%,-1,15%,-3.4%[38.3 µM],-0.4,-5,-0.3
CCn1c(CNc2ccc(OC)cc2)nnc1SCC(=O)Nc1ccc(F)cc1,2.4%,26,7%,2.3%,0.7,-5,0.4
COc1cc(OC)cc(C(=O)NNC(=O)c2nn(C)c(=O)c3ccccc23)c1,-20%,18,.,-0.8%,0.2,.,.
CCn1nc(NC(=O)C(C)(C)C)c2cc3cccc(C)c3nc21,-12%,13,4%,2.2%,4.2,3,1.3
CCOC(=O)C1=C(COC(=O)c2cccnc2SC)NC(=O)NC1C (centres undefined),0.5%,-6,.,4.2%,0.2,.,.
O=C(COc1nsnc1N1CCOCC1)Nc1ccc(Br)cc1,.,18,12%,-1.2%,0.2,-17,6.2
COC(CNC(=O)c1cc(C(=O)c2c(-c3c(Cl)cccc3Cl)noc2C)c[nH]1)OC,-0.4%,20,14%,7.4%,0.7,1,0.1
COc1cc(NC(=O)CCc2c(C)nn(-c3ccc4nnc(C)n4n3)c2C)cc(OC)c1OC,-6.9%,-16,.,0.1%,0.0,.,.
Cc1cccc(N2C(=O)CC(N3CCN(Cc4ccc5c(c4)OCO5)CC3)C2=O)c1 (centres undefined),-0.5%,-13,1%,0.3%,0.0,3,-2.6
CCOC(=O)COc1nc(-c2ccc(C)cc2)cc(-c2ccco2)c1C#N,4.4%,40,-15%,17%,-0.7,18,5.9
CC(=O)Nc1ccc(CN2CCC(n3nccc3NC(=O)CCc3ccccc3)CC2)cc1,-1.0%,-19,9%,0.1%,0.7,5,.
Cc1ccccc1CNC(=O)c1cccc(NC(=O)c2nsc3ccccc23)c1,?,-29,.,-1.7%,1.1,.,.
CC(C)(Oc1ccc(Cl)cc1)C(=O)NC1CCSC1=O (centres undefined),-1.3%,0,-7%,2.3%[38.3 µM],-0.2,-12,4.9
Cc1ccc(CNS(=O)(=O)NCc2ccccc2)cc1,0.8%,-5,5%,0.8%,0.7,-5,0.4
CC(C)(C)C1CCC(C(=O)Nc2ccccc2N2CCOCC2)CC1 (centres undefined),1.8%,-2,.,12%,-0.3,-25,.
c1ccc2c(c1)C(=NCC1CCCO1)NC2=NCC1CCCO1 (centres undefined),-12%,-9,-13%,3.0%[38.3 µM],0.6,15,-1.8

# Source: PubChem
